Arbovirus anti: arbovirus infection inhibition | arbovirus infection cell-based antiviral screen | inhibition, % at 10 µM | 200,000 compounds, 0.37% hits;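 active means inhibition from about 30%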;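 further: bluetongue infection of BSR cells; cell survival read as ATP light after 72 h; 0% = infected wells without compound and 100% = uninfected wells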
Mtb betalactam: beta-lactam sensitization of Mtb H37Rv | inhibition, % at 25 µM | M. tuberculosis H37Rv growth with meropenem, percent inhibition; hits of this screen are not shown here | 330,000 compounds, 0.27% hits;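 active means about 74% or more and at least 40 points above the plate without the antibiotic, then above 30% in a dose series; inconclusive means first-round hits that could not be retested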;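 further: growth measured after seven days incubation then overnight dye step; 0% = bacteria only wells and 100% = bacteria with antibiotic; twin plates without the antibiotic show which effects depend on it; some results filed as inactive read as strong as hits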
YopH PTP inh: inhibitors of Yersinia enterocolitica YopH tyrosine phosphatase; 140,000 compounds, 0.16% hits; fluorescence Ex485/Em525; inhibition, %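 (about 10 µM by stock and volumes)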;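 active means inhibition of 50% or more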;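 further: controls were vehicle for no effect and minimum signal wells for full effect; inactives centre near -20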
RecA splice inh: blocks M. tuberculosis RecA intein splicing; inhibition, %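 (about 9 µM by stock and volumes)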; AID 2221; P9WHJ3; cell-free RecA intein splicing, fluorescence; 290,000 compounds, 0.75% hits; in the data active means inhibition above about 30%; inconclusive means no clear call, values can overlap the other calls;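 further: 0% = vehicle wells and 100% = reference inhibitor control wells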
Target sequence (P9WHJ3 whole entry, looked up, canonical isoform): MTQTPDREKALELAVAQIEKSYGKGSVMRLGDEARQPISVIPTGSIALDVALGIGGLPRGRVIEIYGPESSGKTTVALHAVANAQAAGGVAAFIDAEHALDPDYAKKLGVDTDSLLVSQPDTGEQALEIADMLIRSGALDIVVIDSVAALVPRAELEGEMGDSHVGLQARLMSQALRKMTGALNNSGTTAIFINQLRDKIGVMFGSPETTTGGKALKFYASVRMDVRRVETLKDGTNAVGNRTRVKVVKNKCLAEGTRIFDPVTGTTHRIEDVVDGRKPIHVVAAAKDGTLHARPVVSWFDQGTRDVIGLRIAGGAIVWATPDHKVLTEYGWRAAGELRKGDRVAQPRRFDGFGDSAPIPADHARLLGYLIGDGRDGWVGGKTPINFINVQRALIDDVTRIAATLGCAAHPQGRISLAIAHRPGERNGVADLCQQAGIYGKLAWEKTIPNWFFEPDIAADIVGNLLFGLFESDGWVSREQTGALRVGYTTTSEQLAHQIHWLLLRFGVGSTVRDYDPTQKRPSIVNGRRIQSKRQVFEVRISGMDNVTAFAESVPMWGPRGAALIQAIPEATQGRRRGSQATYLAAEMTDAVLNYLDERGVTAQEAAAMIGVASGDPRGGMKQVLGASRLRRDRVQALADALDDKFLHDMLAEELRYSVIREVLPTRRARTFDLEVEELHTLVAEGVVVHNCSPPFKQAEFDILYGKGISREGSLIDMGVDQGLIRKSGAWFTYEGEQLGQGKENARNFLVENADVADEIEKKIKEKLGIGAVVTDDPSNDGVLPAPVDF
Mtb growth: M. tuberculosis H37Rv growth inhibitors, H37Rv strain (AID 1626); 220,000 compounds, 0.95% hits; M. tuberculosis H37Rv growth inhibition; higher % means a stronger effect; inhibition, % at 10 µM, or IC50 in µM where a hit was titrated;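 active means confirmed in a dose series; inconclusive means inhibition above 80% but not taken into the dose series; inactive means below 80% or under 30% at every dose of the series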;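 further: bacteria incubated seven days before Alamar blue readout; 0% = bacteria only wells and 100% = bacteria with antibiotic wells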
Arbovirus anti repeat: recorded beside Arbovirus anti, whose call it bears; inhibition, %; measured here: 10K subset replicate screen; many hits read low in the repeat;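 first of two repeat runs on a subset; 0% = infected and 100% = uninfected wells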
Starred values were filed as active, the others as inactive; ? = inconclusive; · = no result given. This is a subset (hit frequency here may not be typical).

SMILES	Arbovirus anti	Mtb betalactam	YopH PTP inh	RecA splice inh	Mtb growth	others
CC1CCN(c2nc(-c3ccncc3)nc3ccccc23)CC1	-7	100	-14	15	4.6µM*	Arbovirus anti repeat=-31
O=C1NCCN(Cc2cccc(Oc3ccccc3)c2)C1CC(=O)N1CCCO1 (stereo not given)	6	-7	·	1.2	-10%
Cn1cc(NC(=O)Nc2ccc(C(F)(F)F)cc2)c(C(F)(F)F)n1	·	90	·	-1.3	11%
C/C(=N/NC(=O)c1ccc(NC(=O)c2ccc(F)cc2)cc1)c1ccccc1	-6	-5	0	-3.0	0%
CC(C)(C)c1cc(-c2ccco2)c(C#N)c(SCC#N)n1	13	-6	-9	4.5	11%
CCCC1(C(=O)O)NC(c2cccc(OC)c2O)C2C(=O)N(c3ccccc3)C(=O)C21 (stereo not given)	6	2	-30	·	-11%	Arbovirus anti repeat=6
O=C(CNCC1CCCO1)Nc1ccccc1-n1cccc1 (stereo not given)	0	5	-182	-0.9	-4%
COc1ccc(-n2nc(C(=O)NCC(=O)N3CCCCCC3)c3ccccc3c2=O)cc1Cl	·	40	·	-0.6	·
O=C(N/N=C/c1ccc(O)cc1)c1cc[n+](Cc2ccccc2)cc1	0	2	-27	-2.1	-2%
C[n+]1cccc(C(=O)NCC2CCCO2)c1 (stereo not given)	7	10	14	-1.9	11%
CC(C)(C)c1ccc(S(=O)(=O)NCc2ccc(C(=O)NCC3CCCO3)cc2)cc1 (stereo not given)	·	-2	·	-0.3	·
O=C1CN(C(=O)NCC(=O)N2CCCC2)c2ccccc2N1	·	0	·	-1.6	·
Cc1cc(=O)c2ccccc2[nH]1	8	-7	-40	-5.5	-7%
COc1ccc(CN2CCC(n3nccc3NC(=O)c3cccc(F)c3)CC2)cc1O	·	?	·	1.3	·
COc1cccc(C(=O)N2CCN(Cc3ccccc3[N+](=O)[O-])CC2)c1	0	6	-16	-0.3	-3%
CCOC(=O)c1cn(Cc2ccccc2)nn1	-2	-7	9	0.5	7%
CCc1ccc2c(c1)[C@]1(C(=O)N2)[C@@H]2C(=O)N(Cc3ccccc3)C(=O)[C@@H]2[C@@H]2CCCN21	2	-3	-41	2.2	4%
CSc1cccc(NC(=O)c2ccccc2N(C)S(C)(=O)=O)c1	-1	-1	16	·	1%
COc1ccc(C2CC(C(F)(F)F)n3ncc(C(=O)NCC4CCCO4)c3N2)cc1OC (stereo not given)	8	-10	0	-2.6	-3%
Cc1ccccc1NC(=O)C1CCC(=O)N1 (stereo not given)	·	5	·	-1.1	·
Cc1nn(Cc2ccccc2)c(C)c1/C=N/NC(=O)c1ccccc1O	·	11	·	-5.6	6%
Cc1onc(-c2ccccc2)c1C(=O)c1c[nH]c(C(=O)NCCCN2CCOCC2)c1	0	2	·	-1.2	-3%
Cc1c(N=Nc2c(O)n(C)c(=O)n(C)c2=O)c(=O)n(-c2ccccc2)n1C	-22	-2	-4	1.1	6%
Cc1ccc(NC(=O)Cc2ncon2)cc1Cl	·	-6	·	0.5	-10%
Cc1cc(C)c(NC(=S)NC(=O)c2c(Cl)c(C)nn2C)c([N+](=O)[O-])c1	6	6	-22	1.3	-2%
SMILES	Arbovirus anti	Mtb betalactam	YopH PTP inh	RecA splice inh	Mtb growth	others
COc1ccc(CC(=O)Nc2sc3c(c2C#N)CC(C)(C)NC3(C)C)cc1OC	·	-6	·	0.3	·
CCCCn1c(CCCNC(=O)CC)nc2ccccc21	7	-5	-47	0.3	4%	Arbovirus anti repeat=3
CC(=O)CCc1c(C)nc2ccc(C)cc2c1Cl	-3	5	·	·	-5%
COC(=O)c1ccc(CN2CCCC(CNC(=O)Cc3ccc(OC)cc3)C2)cc1 (stereo not given)	·	1	·	-6.1	·
CCOC(=O)C1CCCN(CC(=O)Nc2c(F)c(F)c(F)c(F)c2F)C1 (stereo not given)	8	-1	-45	-0.5	5%
Cn1c(=O)c2c(nc(NCc3ccc4c(c3)OCO4)n2Cc2ccccc2)n(C)c1=O	-16	9	-6	1.3	5%
Cc1cccc(COc2ccccc2C(=O)OCC(=O)N(C)c2c(N)n(Cc3ccccc3)c(=O)[nH]c2=O)c1	·	-10	·	1.3	·
O=C(N/C(=C\c1ccc(Br)cc1)C(=O)N1CCOCC1)c1ccc([N+](=O)[O-])cc1	·	-2	·	-0.5	·
COc1cc(OC)cc(OC(=O)c2ccc3c(=O)n4c(nc3c2)CCC4)c1	·	-4	·	0.1	·
Cc1ccc(S(=O)(=O)CCSc2nccn2C)cc1	·	-3	·	·	-5%
Cc1ccsc1/C=N/NC(=O)c1nnn(-c2nonc2N)c1-c1ccccc1	·	6	·	-3.1	·
O=C(NC1CC1)C(=O)c1c[nH]c2ccccc12	·	-7	·	1.7	·
O=C(Nc1ncc(S(=O)(=O)c2ccc([N+](=O)[O-])cc2)s1)c1cccnc1	·	62	·	0.1	-4%
Nn1c(SC/C=C/c2ccccc2)nnc1-c1ccccn1	-4	-7	-43	3.0	6%	Arbovirus anti repeat=-5
C/C(=N\NC(=O)c1ccccc1[N+](=O)[O-])c1ccc(Br)s1	3	4	·	1.7	-5%
O=C(Cc1ccccc1Cl)NC1(O)C(=O)c2ccccc2C1=O	·	0	·	51*	-7%
COc1cccc(C=O)c1OC(=O)N1CCOCC1	·	-6	·	-5.1	·
O=c1c2ccccc2nc(CSc2nnnn2-c2ccccc2)n1-c1ccccc1	-20	-2	-37	-2.9	·
CCCn1c(/N=C/c2ccc3c(c2)OCO3)nc2ccccc21	-1	5	-15	-5.3	-3%
CCOC(=O)CNC(=O)c1sc(NC(=O)c2cccc(F)c2)nc1C	-11	-11	-35	-3.0	6%
CCOc1ccc(C(=O)NCC(=O)NCC(c2cccs2)N2CCOCC2)cc1 (stereo not given)	·	0	·	2.3	·
O=C1OC(Nc2ccc(Br)cc2F)c2ccccc21 (stereo not given)	9	8	0	-0.7	3%
CC(=O)Nc1ccc(S(=O)(=O)N2CCCC2C(=O)Nc2ccc3c(c2)OCCO3)cc1 (stereo not given)	5	-5	·	1.4	-5%
N#C/C(=C\c1ccc(Oc2ccc(C(F)(F)F)cc2[N+](=O)[O-])cc1)c1nc2ccccc2[nH]1	-21	-2	-30	2.9	8%
C/C=C(\C)CN1CCN(c2cc(C)ccc2C)CC1	-1	-5	-52	3.2	-7%

Molecules above that have a tert-butyl group:
SMILES	Arbovirus anti	Mtb betalactam	YopH PTP inh	RecA splice inh	Mtb growth	others
CC(C)(C)c1cc(-c2ccco2)c(C#N)c(SCC#N)n1	13	-6	-9	4.5	11%
CC(C)(C)c1ccc(S(=O)(=O)NCc2ccc(C(=O)NCC3CCCO3)cc2)cc1 (stereo not given)	·	-2	·	-0.3	·

Remaining list, next part:
SMILES	Arbovirus anti	Mtb betalactam	YopH PTP inh	RecA splice inh	Mtb growth	others
NC(=O)C1CCN(C(=O)c2cnn(-c3ccccc3)c2NC(=O)c2cccc(F)c2)CC1	·	0	·	-1.2	·
CCOC(=O)N1CCN(C(=O)/C(=C/c2ccc(OC)cc2)NC(=O)c2ccccc2)CC1	-1	-6	-36	-1.5	-14%
Cc1cc(C(=O)N/N=C/c2c[nH]c3ccccc23)c(C)o1	0	6	-11	0.1	7%
COc1cccc(C(=O)Nc2sc(C(C)C)cc2C(N)=O)c1OC	·	98	·	-0.1	55%
CC(C)Cn1c(N)c(C(=O)CSc2ncccn2)c(=O)n(C)c1=O	·	-2	·	0.8	·
N=C1C(c2ccccc2)=C(O)CN1c1cccc2ccccc12	3	-1	·	-3.3	-2%
Cc1ccc(CNC(=O)c2sc3nc4c(c(C(F)(F)F)c3c2N)CCC4)cc1	5	99	-27	·	?
Cc1nc2ccccc2c(=O)n1-c1cc([N+](=O)[O-])cc([N+](=O)[O-])c1	·	-1	·	-1.9	·
CCSc1nnc(-c2ccncc2)n1Cc1ccccc1	1	-5	-25	·	-7%
C/C(=N/O)c1ccc(Oc2cnccn2)cc1	4	0	·	-3.6	3%
COc1ccc(Cn2c(=O)c3c(nc(NCCO)n3C)n(C)c2=O)cc1	2	3	-43	0.5	-5%
NS(=O)(=O)c1ccc(Cl)c(C(=O)Nc2ccccc2[N+](=O)[O-])c1	2	-8	·	1.1	0%
COc1ccc(S(=O)(=O)N2CCOCC2)cc1C(=O)Nc1ccc2c(c1)OCO2	·	?	·	0.6	·
S=c1[nH]nc(COc2ccc3ccccc3c2)o1	-2	0	-48	0.0	2%
O=C1CN(c2nc3nonc3nc2N2CCCCC2)CCN1	-1	-5	·	-3.2	-1%
CCN(CC)Cc1cc(CC(C(N)=O)C(N)=O)ccc1OC	2	-7	-41	0.5	-2%
COc1ccc(C(=O)COC(=O)CN2C(=O)c3ccccc3C2=O)c(OC)c1	·	-2	·	-0.1	·
COc1ccc(CNC(=O)CSc2nc(C)cs2)cc1	19	-6	·	-0.7	-1%
Cc1nc2cc(NC(=O)c3ccc(Br)s3)ccc2s1	·	33	·	-1.0	·
Cc1nc2ccccc2cc1C(=O)NCc1ccco1	3	-4	-26	-3.5	-6%
CS(=O)(=O)N1CCN(Cc2cc(=O)n3ccsc3n2)CC1	·	3	·	-0.4	·
O=c1[nH]nc(SCc2ccccc2)n1C1CC2C=CC1C2 (stereo not given)	·	3	·	2.8	-8%
Cc1ccc(OCCC(=O)Nc2ccc(C)c(F)c2)cc1	1	89	·	1.3	>100µM*
CCCN(Cc1cc(=O)[nH]c2ccccc12)C(=O)CC	·	-4	·	-4.7	11%
Cc1cc(OCc2nn[nH]n2)c2c(C)c(Cc3ccccc3)c(=O)oc2c1	13	-5	-16	5.5	1%

Overlap with the part before: 3 entries; new compounds follow.
SMILES	Arbovirus anti	Mtb betalactam	YopH PTP inh	RecA splice inh	Mtb growth	others
Cc1ccc(OCCC(=O)Nc2ccc(C)c(F)c2)cc1	1	89	·	1.3	>100µM*
CCCN(Cc1cc(=O)[nH]c2ccccc12)C(=O)CC	·	-4	·	-4.7	11%
Cc1cc(OCc2nn[nH]n2)c2c(C)c(Cc3ccccc3)c(=O)oc2c1	13	-5	-16	5.5	1%
CCOC(=O)c1ccc(NC(=O)CCS(=O)(=O)Cc2ccccc2)cc1	·	96	·	-0.6	·
COC(=O)c1cc2c(s1)=NC=NP=2(N1CCOCC1)N1CCOCC1	7	-2	-43	0.1	-19%
O=S(=O)(NC1CN2CCC1CC2)c1ccc(Cl)cc1 (stereo not given)	·	-1	·	-2.6	·
CN(CCOc1cccc(C(F)(F)F)c1)Cc1ccccc1	-2	3	·	0.7	1%
COC(=O)c1cc(S(=O)(=O)N2CCN(c3cc(C)ccc3C)CC2)c[nH]1	·	3	·	6.5	·
CC(=O)c1ccc(NC(=O)CSc2nnc(-c3ccoc3C)n2Cc2ccccc2)cc1	0	-6	-26	-1.2	0%
CC(C)OCCCn1c(=S)[nH]c2ncccc2c1=O	11	-7	-59	2.2	·
O=C(Nc1ccc2oc(=O)ccc2c1)c1ccccc1[N+](=O)[O-]	-7	1	·	-2.0	8%
O=C(O)c1cccc2c1-c1ccccc1/C2=N\Nc1ccccc1	·	83	·	3.5	·
CC(C)OCCCNC(=O)c1cc(-c2cccs2)nc2ccccc12	·	0	·	-2.5	·
O=C(Cc1coc2ccc3ccccc3c12)N1CCCC1	-5	-2	3	3.3	2%
O=C(COC(=O)CNC(=O)c1sc2ccccc2c1Cl)Nc1c(Cl)cc(Cl)cc1Cl	1	0	-14	-3.4	-1%
CCOc1ccc(NC(=O)c2cccnc2SC)cc1	20	5	·	0.0	3%
CCOC(C(=O)OCCCN(CC)CC)(c1ccccc1)c1ccccc1	-13	-9	7	3.9	-4%
O=C(CSc1nnnn1Cc1ccccc1)c1ccccc1F	28	-7	·	4.6	5%
COc1ccc(N2CCN(C(=O)CCNC(=O)c3ccc(Br)cc3)CC2)cc1	·	-10	·	-2.2	·
Cc1nn2c(N)c(C#N)cnc2c1-c1ccccc1	-1	18	-130	-1.5	-6%
CC(C)C(OC(=O)c1nsc(Cl)c1Cl)C(=O)NCC1CCCO1 (stereo not given)	·	-1	·	1.0	·
O=[N+]([O-])c1ccc(N2CCN(S(=O)(=O)Cc3ccccc3)CC2)cc1N1CCOCC1	12	-1	-13	-1.4	9%
COc1ccc(-n2nnnc2SCC(=O)NCCc2ccc(OC)c(OC)c2)cc1	-9	-4	-38	1.1	-4%
CCC(c1nnnn1Cc1ccc(OC)cc1)N1CCN(c2ccc(OC)cc2)CC1 (stereo not given)	-13	3	·	3.4	-7%
COCCNC(=S)N1CCC(C(=O)c2ccc(C)cc2)CC1	·	-10	·	5.2	·

Fetched one by one from the entries so far, 3 records:
SMILES	Arbovirus anti	Mtb betalactam	YopH PTP inh	RecA splice inh	Mtb growth	others
COc1ccc(-n2nnnc2SCC(=O)NCCc2ccc(OC)c(OC)c2)cc1	-9	-4	-38	1.1	-4%
CC(C)OCCCNC(=O)c1cc(-c2cccs2)nc2ccccc12	·	0	·	-2.5	·
COC(=O)c1cc(S(=O)(=O)N2CCN(c3cc(C)ccc3C)CC2)c[nH]1	·	3	·	6.5	·

Source: PubChem
